# Bioassay records from PubChem.
# VACV E9 pol inh = vaccinia E9 polymerase processive synthesis inhibition; in vitro processive DNA synthesis, absorbance read-out; active compounds read low; some inactives read as strong as hits; normalized absorbance, % (test concentration not listed); actives 0.94% (n = 46,000);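 active means replicate mean up to 90% and picked by the depositor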;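 further: 100% = median of the test wells of a plate; 100 nL library stock went into each well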
# * hit, by the source's call.
# Start of the data: the first 6 compounds as a preview:
SMILES,VACV E9 pol inh
CCCOC(=O)C1=C(C)N(CC)C(=O)NC1c1ccccc1Cl (centres undefined),100.2
CCCCc1ccc2nc(N)sc2c1,95.2
COc1cccc(/C=N/n2cnnc2)c1,99.8
O=C1c2nc3cc(-c4ccccc4)[nH]n3c(=O)c2CN1Cc1ccccc1,99.8
O=C(CSc1nc2ccccc2n1-c1ccccc1)N1CCOCC1,97.3
O=C(NN1CCOCC1)c1cccc2c1C(=O)N(Cc1cccnc1)C2,100.5

# The list itself, from the first entry:
SMILES,VACV E9 pol inh
CCCOC(=O)C1=C(C)N(CC)C(=O)NC1c1ccccc1Cl (centres undefined),100.2
CCCCc1ccc2nc(N)sc2c1,95.2
COc1cccc(/C=N/n2cnnc2)c1,99.8
O=C1c2nc3cc(-c4ccccc4)[nH]n3c(=O)c2CN1Cc1ccccc1,99.8
O=C(CSc1nc2ccccc2n1-c1ccccc1)N1CCOCC1,97.3
O=C(NN1CCOCC1)c1cccc2c1C(=O)N(Cc1cccnc1)C2,100.5
CCN(CC)Cc1c(O)ccc2cc(-c3nc4ccccc4s3)c(=O)oc12,96.5
Cc1ccc(-c2nn(-c3ccccc3)cc2/C=C\C(N)=O)cc1,98.3
COC(=O)[C@@H]1[C@H]2C[C@H]3c4[nH]c5ccccc5c4CCN3C[C@@H]2CC[C@@H]1O,100.0
Cc1ccc(C(=O)Nc2nc3c(s2)C(=O)CC(C)(C)C3)cc1,99.9
COc1ccccc1Nc1cccccc1=O,82.8
O=C(COC(=O)CC12CC3CC(CC(C3)C1)C2)NCc1ccc(F)cc1,101.7
CC(=O)NN1C(=O)c2ccccc2NC1c1ccccc1 (centres undefined),100.2
Cc1csc2sc(-c3ccnc(SCc4ccccc4)n3)c(C)c12,103.2
O=C(Cc1ccccc1)OCc1ccc(Cl)cc1,103.5
O=C(Nc1nccs1)C1Cc2ccccc2CN1S(=O)(=O)c1ccc(F)cc1 (centres undefined),97.7
CCCCC(CC)CN1CC(O)=C(c2nc3ccccc3s2)C1=N (centres undefined),91.9
Cc1ccc2[nH]c(=O)c(N3CCCCC3)c(-c3ccccc3)c2c1,100.2
O=c1ccc2cc(S(=O)(=O)NC3CCCCC3)ccc2[nH]1,97.8
O=C(NCCc1ccsc1)c1cc2c(Cl)nc3ccccc3c2s1,101.3
CC(C(=O)N1CCCC1)N(c1ccccc1)S(C)(=O)=O (centres undefined),97.1
O=C(NC1CCCCNC1=O)c1ccc2nsnc2c1 (centres undefined),100.1
C=CCNc1nc(Cl)nc(NCC(=O)OCC)n1,100.2
CC1CCc2c(sc3nc(NN)n(C)c(=O)c23)C1 (centres undefined),100.2

# Single values from above.
# Under VACV E9 pol inh, O=c1ccc2cc(S(=O)(=O)NC3CCCCC3)ccc2[nH]1 reads 97.8
# Under VACV E9 pol inh, CC(=O)NN1C(=O)c2ccccc2NC1c1ccccc1 (centres undefined) reads 100.2
# Under VACV E9 pol inh, Cc1ccc2[nH]c(=O)c(N3CCCCC3)c(-c3ccccc3)c2c1 reads 100.2
# Under VACV E9 pol inh, O=C(Cc1ccccc1)OCc1ccc(Cl)cc1 reads 103.5
# Under VACV E9 pol inh, CCCCC(CC)CN1CC(O)=C(c2nc3ccccc3s2)C1=N (centres undefined) reads 91.9
# Under VACV E9 pol inh, O=C(NC1CCCCNC1=O)c1ccc2nsnc2c1 (centres undefined) reads 100.1
# Under VACV E9 pol inh, CC(C(=O)N1CCCC1)N(c1ccccc1)S(C)(=O)=O (centres undefined) reads 97.1
# Under VACV E9 pol inh, O=C(NCCc1ccsc1)c1cc2c(Cl)nc3ccccc3c2s1 reads 101.3
# Under VACV E9 pol inh, Cc1csc2sc(-c3ccnc(SCc4ccccc4)n3)c(C)c12 reads 103.2
# Under VACV E9 pol inh, C=CCNc1nc(Cl)nc(NCC(=O)OCC)n1 reads 100.2
# Under VACV E9 pol inh, CC1CCc2c(sc3nc(NN)n(C)c(=O)c23)C1 (centres undefined) reads 100.2
# Under VACV E9 pol inh, O=C(Nc1nccs1)C1Cc2ccccc2CN1S(=O)(=O)c1ccc(F)cc1 (centres undefined) reads 97.7

# (more compounds)
SMILES,VACV E9 pol inh
O=C(O)C(Cc1ccccc1)P(=O)(c1ccccc1)c1ccccc1 (centres undefined),100.3
O=C1OCCC1Sc1nc2ccccc2c(=O)[nH]1 (centres undefined),101.2
CC12CN3CC(C)(CN(C1)C3c1ccccc1)C2 (centres undefined),106.3
CC(NC(=O)c1c[nH]c2ccccc12)c1ccccc1 (centres undefined),92.0
Cc1nc2ccccc2n1CO,100.6
CC/C=C\C/C=C\C/C=C\CCCCCCCC(=O)O,98.4
Cc1ccccc1NS(=O)(=O)C(F)(F)F,102.2
CCCN1C(=O)C(O)(c2c[nH]c3ccccc23)c2ccccc21 (centres undefined),82.7
COC(=O)c1cc(-c2ccc3c(c2)OCO3)no1,95.6

# Some of the compounds tested; rates above refer to the full screens.
